# Screens: PubChem BioAssay, several laboratories
# Beta apoptosis – inhibitors of cytokine-induced beta cell apoptosis, primary screen, luminescence; INS-1E cytokine-induced death, ATP luminescence, 48 h; percent of positive-control rescue, neutral wells zero; protection from apoptosis, % (no concentration beside the values); actives 0.8% (n = 300,000); AID 435005, 2010;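 active = all replicates at 75% or more, or half of them and the mean; inconclusive = half reach 75% but not the mean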;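 note: 0% = cytokine-treated negative control wells and 100% = positive control rescue; higher means more ATP so stronger rescue from cytokine killing; wells of about 40 µL received 100 nL stock; the first replicate is given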
# LANA-H2B inh – blockers of LANA interaction with H2A/H2B – biochemical, FP readout, HTS, primary screen; actives 0.6% (n = 320,000); Protein LANA1 (Human herpesvirus 8 type P (isolate GK18)), Q9QR71; cell-free LANA-H2A/H2B peptide, fluorescence polarization; inhibition, % (no concentration beside the values); in the data active = inhibition mostly above about 10%, no sharp cut-off; inactive = mostly below about 6.7%;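 note: stock transfer was 7.5 nL into about 10 µL; 0% = median of vehicle wells and 100% = median of positive control wells; one replicate is shown; the record names a cut of 25% in any replicate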
# Calb FLC – C. albicans growth inhibition with fluconazole, primary screen, CaCi-2 strain, Alamar Blue fluorescence; growth inhibition, % (no concentration beside the values); AID 1979, 2009; C. albicans CaCi-2 (fluconazole-resistant clinical isolate) + fluconazole, 48 h; actives 0.57% (n = 300,000);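 active = most replicates above 75%; inconclusive = exactly half above 75%; inactive = most below 75%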;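 note: all wells also contain fluconazole at 8 µg/ml as a sub-toxic cotreatment; 0% = median of DMSO wells and 100% = median of geldanamycin control wells; wells of about 8 µL received 7.5 nL stock; the first replicate is given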
# Ecoli rRNA inh – reduced GFP signal of wild-type E. coli, primary screen, bacterial rRNA inhibitor project, GFP/RFP fluorescence, OD600, single point; E. coli WT GFP vs humanized-ribosome RFP mutants, 24 h; active compounds read low; DMSO median 0, no signal -100; GFP signal change (wild-type ribosome), % (test concentration not listed); actives 1.6% (n = 350,000); AID 720706, 2013;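 active = significant combined selectivity score with lowered wild-type GFP, culture density cut under 30%, mutant RFP and density less affected; inactive = any of these conditions unmet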; note: one replicate is shown; some compounds called inactive have numbers as strong as hits
# T cruzi repl – inhibitors of intracellular T. cruzi growth, primary screen, luminescence, NIH3T3 host cells; actives 1.4% (n = 300,000); T. cruzi beta-gal in NIH3T3, 90 h; AID 1885, 2009; inhibition, % (test concentration not listed);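 active = mean inhibition across valid replicates above about 55%, limit read from the data; inconclusive = mean below that limit but half or more replicates reach it; inactive = mean below it, under half of replicates reach it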;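 note: signal also drops with host cell toxicity which is not excluded here; 0% = plate median of DMSO wells and 100% = zero luminescence signal; higher percent means less beta-gal luminescence so fewer parasites; stock transfer was 50 nL into about 50 µL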
# B2AR ag – beta2AR agonists driving receptor internalization, primary screen, cell-based, FAP fluorogen, flow cytometry; Beta-2 adrenergic receptor (Homo sapiens), P07550; Am2.2-beta2AR cells; reference of the scale not given here; response, % (concentration not given with the values); actives 0.43% (n = 340,000);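 active = response above a set limit, near 3 SD of response in nonfluorescent compounds, cut at about 42% in these data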;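 note: stock transfer was 100 nL into about 11 µL; a reference agonist was the positive control; negative values mostly stem from fluorescent compounds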
# Target sequence (P07550 whole entry, looked up): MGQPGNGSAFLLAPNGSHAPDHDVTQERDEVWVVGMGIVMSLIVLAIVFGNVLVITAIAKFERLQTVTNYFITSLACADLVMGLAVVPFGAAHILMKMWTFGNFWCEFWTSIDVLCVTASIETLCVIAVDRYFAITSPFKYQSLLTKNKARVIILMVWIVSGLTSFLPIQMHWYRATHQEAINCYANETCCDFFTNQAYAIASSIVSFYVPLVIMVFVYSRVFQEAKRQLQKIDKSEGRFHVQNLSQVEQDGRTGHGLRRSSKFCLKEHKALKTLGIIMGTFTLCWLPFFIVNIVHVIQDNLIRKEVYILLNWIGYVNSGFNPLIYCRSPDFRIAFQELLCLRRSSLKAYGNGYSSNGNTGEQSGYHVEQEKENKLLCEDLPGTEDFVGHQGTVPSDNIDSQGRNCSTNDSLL
# ALR H2O2 inh – inhibitors of human ALR sulfhydryl oxidase, primary screen, biochemical, H2O2 detection, HRP-luminol luminescence, single point; purified ALR, DTT oxidation; actives 3.8% (n = 290,000); inhibition, % (no concentration beside the values);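 active = mean and each replicate at 75% or more; inconclusive = only one of the two met; inactive = neither met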;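 note: stock transfer was 7.5 nL into about 7.5 µL; 0% = neutral wells and 100% = wells with inactivated enzyme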
# Target sequence (P55789 whole entry, looked up): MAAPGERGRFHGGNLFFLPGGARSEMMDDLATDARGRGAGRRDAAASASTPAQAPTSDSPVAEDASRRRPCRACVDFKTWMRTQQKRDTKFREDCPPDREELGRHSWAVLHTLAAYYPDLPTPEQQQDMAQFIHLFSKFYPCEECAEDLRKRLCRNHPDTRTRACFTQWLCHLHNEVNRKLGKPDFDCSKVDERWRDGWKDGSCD
# A1 inh – caspase 3/7 activation in MEF A1-2A-BIM cells, primary screen, A1 inhibitor project, cell-based, luminescence, HTS; Caspase-Glo 3/7 luminescence, 3 h; percent of clofoctol response, vehicle zero; caspase activation, % (no concentration beside the values); actives 0.066% (n = 330,000); AID 2462, 2010;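 active = over half of replicate activation scores above 10%, or exactly half above 10 with the replicate mean above 10; inconclusive = replicate mean below 10 yet half the replicates above 10; inactive = over half of replicates below 10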;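 note: wells of about 30 µL received 50 nL stock; many hits fall short of the cut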
# Ecoli rRNA inh OD600 – further read-out of Ecoli rRNA inh, marked with its call; OD600 change, %; measured here: OD600 growth;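 optical density of the mix in the first replicate; 0 = DMSO median and -100 = no signal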
# Ecoli rRNA inh RFP – recorded beside Ecoli rRNA inh, whose call it bears; RFP signal change, %; measured here: RFP humanized mutant strains;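 first replicate; 0 = DMSO median and -100 = no signal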
# * = called active by the depositor; u = inconclusive; x = no result given; & = joins results of further samples.
No.	Molecule	A1 inh	T cruzi repl	B2AR ag	LANA-H2B inh	ALR H2O2 inh
1	CN(C(=O)Nc1ccc(Cl)cc1Cl)C1CCCC1	-2.2	-6	-1	3.4	0
2	COc1ccc(-n2nc(C(=O)Nc3ccc4c(c3)OCO4)c3c4ccccc4n(C)c3c2=O)cc1	-0.3	-2	1	-7.5	-2
3	COCCN(C(=O)Cn1nnc2ccccc21)C(C(=O)NC1CCCC1)c1cccc(OC)c1OC (stereo not drawn)	-0.3	-1	7	2.3	-5
4	C[C@H]1CN([C@@H](C)CO)C(=O)c2cccc(NC(=O)Nc3ccc(F)cc3)c2O[C@@H]1CN(C)Cc1ccc(C(=O)O)cc1	0.0	x	-3	-2.1	9
5	CCOc1ccccc1N1CC(C(=O)Nc2ccccc2CC)CC1=O (stereo not drawn)	-0.7	-3	8	2.6	3
6	COC(=O)c1ccc(N2CCN(C)CC2)c(NC(=O)c2cccnc2)c1	-0.6	0	-4	3.7	-13
7	CN1C=CC=C/C1=C(\C#N)c1nc2ccccc2[nH]1	0.2	-16	-31	0.9	99*
8	Cc1ccc(C(=O)OCC(=O)Nc2ccc3[nH]c(=O)[nH]c3c2)o1	-1.2	-10	9	-0.6	-14
9	Cc1c(NC(=O)c2cc3c(=O)n4ccccc4nc3s2)c(=O)n(-c2ccccc2)n1C	0.7	2	-10	8.8	x
10	O=C1c2ccccc2NC(c2ccc(F)cc2)N1Cc1ccco1 (stereo not drawn)	1.0	-8	8	3.2	-5

No.	Beta apoptosis	Ecoli rRNA inh RFP	Ecoli rRNA inh	Calb FLC	Ecoli rRNA inh OD600
1	-2	-2.5	12	-27	10
2	6	x	x	-7	x
3	0	x	x	-6	x
4	-5	-3.7&-0.9	1&10	x	-1&12
5	5	-2.2	2	23	0
6	1	1.1	8	-5	16
7	4	x	x	-4	x
8	-1	1.7	9	-2	8
9	2	-3.9	11	2	4
10	2	x	x	3	x

# By substructure, those above with an NH in an aromatic ring (two)
No.	Molecule	A1 inh	T cruzi repl	B2AR ag	LANA-H2B inh	ALR H2O2 inh
7	CN1C=CC=C/C1=C(\C#N)c1nc2ccccc2[nH]1	0.2	-16	-31	0.9	99*
8	Cc1ccc(C(=O)OCC(=O)Nc2ccc3[nH]c(=O)[nH]c3c2)o1	-1.2	-10	9	-0.6	-14

No.	Beta apoptosis	Ecoli rRNA inh RFP	Ecoli rRNA inh	Calb FLC	Ecoli rRNA inh OD600
7	4	x	x	-4	x
8	-1	1.7	9	-2	8

# (listing goes on)
No.	Molecule	A1 inh	T cruzi repl	B2AR ag	LANA-H2B inh	ALR H2O2 inh
11	Cc1ccc(S(=O)(=O)Nc2ncccn2)cc1	0.1	-14	-11	11	x
12	O=C(N/N=C/c1cccc(Br)c1)c1ccc(Cn2cc(Br)cn2)o1	-0.1	0	4	0.3	3
13	O=C(NCC1CCCO1)c1ccc2c(c1)N(Cc1ccccc1)C(=O)CS2 (stereo not drawn)	1.5	-2	-5	-0.8	x
14	CC12CCC(C(=O)Nc3ccc4c(c3)OCCO4)(OC1=O)C2(C)C (stereo not drawn)	1.1	20	2	-3.4	x
15	COc1cc(C(=O)Nc2c(C(=O)O)[nH]c3ccccc23)cc(OC)c1OC	-1.1	-12	2	-0.3	u
16	CCN(Cc1ccccc1)Cc1c(C)[nH]c2c(C)c(C)ccc2c1=O	-0.2	8	-8	-3.2	-3
17	FC(F)(F)c1nc2ccccc2nc1N/N=C\c1ccccc1	1.0	-11	3	3.3	8
18	C/C(NC(=O)c1ccccc1)=C1/C(=O)CC2C1C2(C)C (stereo not drawn)	0.3	18	-9	-2.7	2
19	COc1ccc(C2NC(=O)NC(c3ccccc3)=C2c2nc3ccccc3s2)cc1 (stereo not drawn)	0.3	25	2	-6.2	-6
20	COc1ccccc1N1CCN(C(=O)c2oc3ccc(Br)cc3c2C)CC1	0.3	0	3	-2.1	-4

No.	Beta apoptosis	Ecoli rRNA inh RFP	Ecoli rRNA inh	Calb FLC	Ecoli rRNA inh OD600
11	-6	-1.1	7	9	16
12	7	x	x	7	x
13	-1	4.3	-4	-8	-6
14	-1	x	x	4	x
15	-1	-1.4	-7	0	17
16	-6	x	x	-3	x
17	11	x	x	-2	x
18	-2	x	x	4	x
19	2	22	-6	4	-6
20	3	-11	-10	-2	-14

# Some of these compounds in order of formula weight, ascending:
No.	Molecule	A1 inh	T cruzi repl	B2AR ag	LANA-H2B inh	ALR H2O2 inh
7	CN1C=CC=C/C1=C(\C#N)c1nc2ccccc2[nH]1	0.2	-16	-31	0.9	99*
11	Cc1ccc(S(=O)(=O)Nc2ncccn2)cc1	0.1	-14	-11	11	x
18	C/C(NC(=O)c1ccccc1)=C1/C(=O)CC2C1C2(C)C (stereo not drawn)	0.3	18	-9	-2.7	2
8	Cc1ccc(C(=O)OCC(=O)Nc2ccc3[nH]c(=O)[nH]c3c2)o1	-1.2	-10	9	-0.6	-14
17	FC(F)(F)c1nc2ccccc2nc1N/N=C\c1ccccc1	1.0	-11	3	3.3	8
10	O=C1c2ccccc2NC(c2ccc(F)cc2)N1Cc1ccco1 (stereo not drawn)	1.0	-8	8	3.2	-5
14	CC12CCC(C(=O)Nc3ccc4c(c3)OCCO4)(OC1=O)C2(C)C (stereo not drawn)	1.1	20	2	-3.4	x
16	CCN(Cc1ccccc1)Cc1c(C)[nH]c2c(C)c(C)ccc2c1=O	-0.2	8	-8	-3.2	-3
6	COC(=O)c1ccc(N2CCN(C)CC2)c(NC(=O)c2cccnc2)c1	-0.6	0	-4	3.7	-13
15	COc1cc(C(=O)Nc2c(C(=O)O)[nH]c3ccccc23)cc(OC)c1OC	-1.1	-12	2	-0.3	u
20	COc1ccccc1N1CCN(C(=O)c2oc3ccc(Br)cc3c2C)CC1	0.3	0	3	-2.1	-4
9	Cc1c(NC(=O)c2cc3c(=O)n4ccccc4nc3s2)c(=O)n(-c2ccccc2)n1C	0.7	2	-10	8.8	x

No.	Beta apoptosis	Ecoli rRNA inh RFP	Ecoli rRNA inh	Calb FLC	Ecoli rRNA inh OD600
7	4	x	x	-4	x
11	-6	-1.1	7	9	16
18	-2	x	x	4	x
8	-1	1.7	9	-2	8
17	11	x	x	-2	x
10	2	x	x	3	x
14	-1	x	x	4	x
16	-6	x	x	-3	x
6	1	1.1	8	-5	16
15	-1	-1.4	-7	0	17
20	3	-11	-10	-2	-14
9	2	-3.9	11	2	4

No.	Molecule	A1 inh	T cruzi repl	B2AR ag	LANA-H2B inh	ALR H2O2 inh
12	O=C(N/N=C/c1cccc(Br)c1)c1ccc(Cn2cc(Br)cn2)o1	-0.1	0	4	0.3	3

No.	Beta apoptosis	Ecoli rRNA inh RFP	Ecoli rRNA inh	Calb FLC	Ecoli rRNA inh OD600
12	7	x	x	7	x

# (listing goes on)
No.	Molecule	A1 inh	T cruzi repl	B2AR ag	LANA-H2B inh	ALR H2O2 inh
21	C/C(=N\NC(=O)Cn1c(-c2ccccn2)nc2ccccc21)c1ccccc1	0.1	11	3	-4.9	-15
22	Cc1c(NC(=O)Nc2ccc(Cl)c(Cl)c2)c(=O)n(-c2ccccc2)n1C	0.7	x	-6	-1.5	x
23	CCOc1ccc(S(=O)(=O)NCCSc2ccccc2)cc1	-0.2	-6	0	-4.6	-6
24	CC(C)NC(=O)c1ccc2c(c1)N(CC(=O)NC1CCCCC1)C(=O)C(C)(C)O2	x	-12	-9	x	x
25	COc1ccc(/C=C2\SC(=O)N(CCNC(=O)CN3C(=O)NC4(CCCC4)C3=O)C2=O)cc1	-0.4	10	1	3.9	-1
26	Cc1cc(NS(=O)(=O)c2c(C(=O)N3CCOCC3)c(C)n(C)c2C)ccc1Br	-0.7	8	-7	-3.2	-1
27	CC1CC(C)(C)N(C(=O)CN2C(=O)CCC2=O)c2ccccc21 (stereo not drawn)	-0.3	-7	2	0.9	0

No.	Beta apoptosis	Ecoli rRNA inh RFP	Ecoli rRNA inh	Calb FLC	Ecoli rRNA inh OD600
21	0	2.4	-3	4	-9
22	1	x	x	x	x
23	4	x	x	-26	x
24	x	-5.0	-3	-5	-8
25	0	-3.4	-5	2	-10
26	-17	-0.5	16	-1	19
27	-4	-1.1	3	0	1

# An excerpt; count on the stated rates, not on these rows.
